# Screens as filed in PubChem.
# VACV Venus inh = vaccinia inhibition (Venus reporter) | 330,000 compounds, 0.46% hits | Potency, µM (series often up to 36.5 µM), for inactives: at the top dose activity change, negative = inhibition, most hits filed as inhibitors | Vaccinia virus Venus reporter expression, fluorescence; active means well fitted inhibition curve with a large enough effect; inconclusive means small, poorly fitted or top-dose-only effect; inactive means no such curve, though single readings can be large or run the other way; tested in A549 cells; also: nearly all actives have a fitted effect of over 30% in size; inactives centre near -10
# VACV mCherry inh = vaccinia inhibition (mCherry reporter); Potency, µM (highest dose often 36.5 µM), for the others: at the highest dose activity change, negative = inhibition, most hits filed as inhibitors; AID 720579; 310,000 compounds, 0.63% hits; Vaccinia virus mCherry reporter infection, fluorescence; about a quarter of the inactives have no number; active = well fitted inhibition curve with a large enough effect; inconclusive = small, poorly fitted or top-dose-only effect; inactive = no such curve, though single readings can be large or run the other way; tested in A549 cells; also: nearly all actives have a fitted effect of over 35% in size; inactives centre near -10
# Numbers without * were called inactive; i = inactive; ? = inconclusive; nt = not tested or not shown; & = joins results of further samples. % is scaled to controls: 0 for no effect and ±100 for the full control effect; potency is read from the fitted curve at half-maximal effect.
# Fields: VACV Venus inh | VACV mCherry inh
- CC1=C(C(=O)Nc2ccc(C)cc2C)C(c2ccc([N+](=O)[O-])cc2)n2ncnc2N1 (stereo not given)
→ -11.3% | -4.6%
- O=C(c1ccc(Oc2ccc(C(F)(F)F)cc2[N+](=O)[O-])cc1)N1CCOCC1
→ -18.5% | ?
- COc1cccc(-c2cncnc2NCc2ccc(OC)cc2OC)c1
→ 0.8% | 3.9%
- CCCC(=O)Nc1cccc(-c2cn3ccsc3n2)c1
→ -18.5% | nt
- COc1ccccc1CNC(=O)C(NS(=O)(=O)c1cccs1)C(C)C (stereo not given)
→ 5.7% | 1.6%
- CC(=O)Nc1cccc(-c2nnc(-c3ccccc3)o2)c1
→ -19.3% | i
- CCOCCCNC(=O)C1CCN(c2cc(C)nc3c(-c4ccc(Cl)cc4)c(C)nn23)CC1
→ 0.6% | 5.0%
- O=C1CC(c2ccccc2)c2cc(O)ccc2O1 (stereo not given)
→ 11.3% | i
- Cc1ccccc1CS(=O)(=O)Cc1ccc(C(=O)NCC2CCCO2)o1 (stereo not given)
→ -17.0% | -20.8%
- CCn1c(/N=C/c2ccccc2O)nc2ccccc21
→ -25.7% | -20.3%
- N#CCCn1cc(C(=O)Nc2ccccc2Cl)c(-c2ccc(F)cc2)n1
→ -18.0% | -2.5%
- CCCCOc1ccc(NC(=O)CSc2nnnn2C)cc1
→ -4.4% | -2.4%
- O=C1CC(=C(c2ccccc2)c2ccccc2)C(=O)N1CCCN1CCN(c2cccc(Cl)c2)CC1
→ ? | nt
- CCCN(Cc1nnc(-c2ccccc2Cl)o1)C(=O)c1oc2ccccc2c1C
→ -8.0% | -16.1%
- CN(C)CCNC(=O)c1ccc(-c2nn(C)c(=O)c3ccccc23)cc1
→ 8.1% | 6.3%
- NNc1nc(-c2ccccc2)cc(-c2ccc(Br)cc2)n1
→ -22.8% | ?
- COCCNC(=O)CSc1nccn1Cc1ccc2c(c1)OCO2
→ -5.6% | -4.9%
- OCCc1ccc(O)c(-n2nc3ccccc3n2)c1
→ -8.8% | -4.3%
- COCC(=O)Nc1c(C(=O)N2CCCC2)oc2ccccc12
→ -14.6% | -16.5%
- O=C(COC(=O)CCC1CCCCC1)Nc1ccc(OC(F)F)cc1
→ -9.1% | -14.7%
- CCN(CC)CCNC(=O)c1cc(Sc2nnc(C)s2)nc2ccccc12
→ -16.2% | -12.0%
- CCCOc1ccc(N2C(=O)CC(NCC(=O)OCC)C2=O)cc1 (stereo not given)
→ -23.8% | -10.4%
- Cc1ccc2nc(C3CCCCC3)c(CC(C)(C)C)n2c1
→ -14.6% | 9.1%
- Cc1cccc(OCCOC(=O)c2c(-c3ccccc3)noc2C)c1
→ -18.4% | -23.6%
- Cc1ccc(NC(=O)CSCC(=O)NNC(=O)c2ccoc2C)cc1
→ -7.7% | -12.6%
- COc1ccc(CCn2c(=N)c(C(=O)NCc3ccco3)cc3c(=O)n4cccc(C)c4nc32)cc1
→ -4.0% | nt
- CCCCCCCCCCCCN1C(=O)CSC1c1cccnc1 (stereo not given)
→ -23.1% | -5.3%
- O=C(CCC(=O)c1ccc(Br)cc1)Nc1ccc(F)cc1
→ -21.9% | i
- COC(=O)CSc1ncnc2c(C)csc12
→ -11.5% | i
- COc1c(N)c2c(c([N+](=O)[O-])c1OC)C(=O)OC2
→ -12.3% | -5.9%

# An excerpt from above in order of formula weight, rising.
# Fields: VACV Venus inh | VACV mCherry inh
- CC(=O)Nc1cccc(-c2nnc(-c3ccccc3)o2)c1
→ -19.3% | i
- COCC(=O)Nc1c(C(=O)N2CCCC2)oc2ccccc12
→ -14.6% | -16.5%
- Cc1cccc(OCCOC(=O)c2c(-c3ccccc3)noc2C)c1
→ -18.4% | -23.6%
- COc1ccccc1CNC(=O)C(NS(=O)(=O)c1cccs1)C(C)C (stereo not given)
→ 5.7% | 1.6%
- CCCN(Cc1nnc(-c2ccccc2Cl)o1)C(=O)c1oc2ccccc2c1C
→ -8.0% | -16.1%

# Returning to the listing, repeating the two entries before the break.
# Fields: VACV Venus inh | VACV mCherry inh
- COC(=O)CSc1ncnc2c(C)csc12
→ -11.5% | i
- COc1c(N)c2c(c([N+](=O)[O-])c1OC)C(=O)OC2
→ -12.3% | -5.9%
- Cn1cc(-c2coc3c(C(=O)NCc4cccc(Cl)c4)cccc23)cn1
→ -20.2% | -22.5%
- COc1ccccc1NC(=O)Nc1nc(CC(=O)Nc2ccc(N(C)C)cc2)cs1
→ -17.6% | i
- CCCN1CCN(CCCNC(=O)c2ccc3c(c2)sc2nc(-c4ccc(C)cc4)cn23)CC1
→ ? | 7.08µM*
- Cc1c2ccncc2cc2c1[nH]c1ccccc12
→ 10µM* | 15.8µM*
- Cc1ccc(C(=O)Nc2ccc(CN3CCCCC3)cc2)c(C)c1
→ -8.0% | -14.2%
- COC(=O)CC1C(=O)NCCN1C(=O)c1ccc([N+](=O)[O-])cc1 (stereo not given)
→ -1.8% | i
- NC(=O)CC(NC(=O)Cc1ccc(Cl)cc1)c1ccc(NCCOc2ccccc2)c([N+](=O)[O-])c1 (stereo not given)
→ -20.2% | -24.5%
- O=C(NCc1ccccc1)c1ccc(-c2ccc(F)c(F)c2)c2ccoc12
→ -17.5% | -13.3%
- Cc1[nH]n(C2=NCCS2)c(=O)c1N=Nc1ccccc1
→ -9.0% | i
- CCOc1ccc(NCc2nnc(SCc3ccc(Cl)cc3)n2-c2ccccc2)cc1
→ ? | -19.3%
- COc1ccc(CCNc2oc(-c3ccccc3OC)nc2C#N)cc1OC
→ -17.1% | nt
- Fc1cc(Cl)ccc1NC1=NCCCCC1
→ -13.3% | -13.2%
- Cc1cc(C(=O)NCc2cc(C)n(C)n2)sc1-c1ccccc1
→ -23.8% | -10.5%
- O=C(O)C1=C[C@@H](c2csc3ccccc23)C[C@@H](OCc2ccc(CO)cc2)O1
→ -10.6% | -4.7%
- CCCN1CCC(=O)N([C@H](COc2ccccc2)c2ccccc2)CC1
→ -7.7%&-9.7% | -19.1%
- CC(C)c1ccc(NC(=O)[C@H](Cc2c[nH]c3ccccc23)NC(=O)[C@@H]2Cc3ccccc3CN2)cc1
→ 19.6% | ?
- C=CCn1c(O)c2ccc(C(=O)N=NC(=O)COc3ccccc3F)cc2c1O
→ -3.0% | -9.5%
- C=CCn1c(-c2cnn(-c3ccccc3)c2N)n[nH]c1=S
→ 3.8% | i
- COCCNC(=O)C1(C)Cc2c(-c3cccc(NC(C)=O)c3)ccnc2O1 (stereo not given)
→ -22.2% | -2.5%
- CCN1C(=O)[C@H]2[C@@H](c3ccc(C)cc3)N3C(=O)N(c4ccc(OC)cc4)C(=O)[C@@]3(CC)[C@H]2C1=O
→ -2.6% | i
- CCCc1cc(=O)oc2cc(OCC(=O)N3CCC(C(N)=O)CC3)ccc12
→ -7.9% | -17.1%
- CCc1cccc(C)c1NC(=O)Nc1csc2c1CCCC2
→ -22.1% | -19.7%
- O=C1c2ccccc2C(=O)N1CC(O)COc1ccc(Cl)cc1 (stereo not given)
→ -6.2% | ?
- O=C(CCNc1cccc(C(F)(F)F)c1)c1ccco1
→ -15.2% | i
- CC1(C(=O)Nc2ccc3c(c2)OCCO3)CN(S(C)(=O)=O)CC(=O)N1CCCN1CCOCC1 (stereo not given)
→ -1.9% | -2.6%
- COc1c(CC(=O)c2cc3c(cc2O)OC(C)(C)C(O)C3)ccc2c1C=CC(C)(C)O2 (stereo not given)
→ -8.5% | i
- COc1cc(C(=O)NCCCNc2nc3c(C)cc(C)cc3cc2C#N)cc(OC)c1OC
→ -14.6% | i
- COc1ccc(NS(=O)(=O)c2cc(NC(=O)C3CCCO3)ccc2N2CCCCC2)cc1 (stereo not given)
→ -8.5% | -16.2%
- COC(=O)c1ccc(-c2csc(NC(=O)c3c(C)noc3C)n2)cc1
→ -13.1% | -8.2%
- Cc1cc(Cl)n2c(nc3cc(F)c(F)cc32)c1C#N
→ -22.9% | ?
- COc1ccc(OC(C)C(=O)N2CC(C)OC(C)C2)cc1 (stereo not given)
→ -10.1% | i
- CC(C)(C)CN1CCNC(=O)C1CC(=O)N1CCC(C(=O)N2CCOCC2)CC1 (stereo not given)
→ -3.5% | -4.8%
- Cc1ccc(S(=O)(=O)Nc2ccc3c(c2)C(=O)N([C@H](C)CO)C[C@H](C)[C@@H](CN(C)Cc2ccc(-c4ccccc4)cc2)O3)cc1
→ 10µM* | ?
- O=[N+]([O-])c1ccc(C[n+]2cccc(O)c2)cc1
→ 8.1% | -7.5%
- CCOc1cc(C(=O)Nc2nnc(C)s2)cc(OCC)c1OCC
→ 6.1% | -3.9%
- COc1ccc2c(C)c(CC(=O)NCCc3ccccc3)c(=O)oc2c1OC
→ -7.5% | -8.2%
- O=C(Nc1cc(Cl)ccc1N1CCOCC1)c1ccc(=O)[nH]c1
→ -9.2% | i
- CCC(C)C(=O)Nc1nc2c(s1)C(=O)CC(C)(C)C2 (stereo not given)
→ -12.5% | 9.9%
- Cc1ccc(-c2nnc(Nc3ccc(Cl)c(Cl)c3)c3ccccc23)cc1S(=O)(=O)N(C)C
→ -13.0% | -17.6%
- CC(C)CN1C(=O)CN(S(C)(=O)=O)CC1(C)C(=O)NC(C)C (stereo not given)
→ -3.8% | ?
- CSc1ccc(CN2CCC(C)(Oc3ccccc3)C2)cc1 (stereo not given)
→ -9.2% | -1.6%
- O=C(Nc1ccc(Cl)cc1)c1ccc2nsnc2c1
→ 1.9% | -21.1%
- O=S1(=O)CCOCCCN1Cc1cccc(Cl)c1
→ -20.1% | -26.0%
- CN(C)c1nc2cc3c(cc2cc1CN(CC1CCCO1)C(=O)/C=C/c1cccs1)OCO3 (stereo not given)
→ -6.4% | -8.3%
- O=C(NCCCN1CCCC1=O)C1CCN(S(=O)(=O)c2cccc(C(F)(F)F)c2)CC1
→ -10.6% | -17.8%
- COc1ccc(-n2nc(C(=O)Nc3cc(C)ccn3)c3c4ccccc4n(C)c3c2=O)cc1Cl
→ -13.3% | -15.5%
- C[C@@H]1CCCCO[C@H](CN(C)Cc2ccc(Cl)c(Cl)c2)[C@H](C)CN([C@@H](C)CO)C(=O)c2cc(NC(=O)Nc3ccc(F)cc3)ccc2O1
→ ? | ?
- CCOC(=O)c1cc(C#N)c(N2CCN(C(=O)c3cccc(C(F)(F)F)c3)CC2)nc1C(F)(F)F
→ -2.1% | i
- Cc1nc(N2CCN(c3ccccn3)CC2)c2c(C)c(C(=O)Nc3ccc(F)c(Cl)c3)sc2n1
→ -10.9% | i
- COc1ccccc1NC(=O)C(=O)N/N=C(\C)CC(=O)Nc1ccc(OCc2ccccc2)cc1
→ ? | nt
- Cc1ccc2nnnc(-c3ccccc3)c2c1
→ -4.6% | -8.6%
- Cc1cc(C)cc(NC(=O)Cc2c(C(=O)O)c(C)cn2C)c1
→ -6.8% | -4.5%
- CCOc1ccccc1/C=C(/NC(=O)c1ccccc1)C(=O)N1CCCCC1
→ -14.3% | i
- CCOC(=O)C1CCCN(C(=O)CN2C(=O)NC(C)(c3ccc4ccccc4c3)C2=O)C1 (stereo not given)
→ -3.9% | -2.2%
- CC(C)N(CCCNC(=O)CC1Oc2ccccc2NC1=O)Cc1ccccc1 (stereo not given)
→ -7.7% | 2.3%
- CCn1cc(C(=O)NCc2ccc(Cl)cc2)c(=O)c2cc(S(=O)(=O)N3CCOCC3)ccc21
→ -11.4% | -14.3%
- COc1ccc(Cn2c(=O)c3oc4ccccc4c3n(Cc3ccc(F)cc3)c2=O)cc1
→ -2.4% | -8.9%
- Oc1ccccc1C1=NC(c2ccccc2)NC(c2ccccc2)C1 (stereo not given)
→ -16.3% | -14.1%
- O=C(CSc1ccc2nc(-c3ccccc3)cn2n1)Nc1ccccc1C(F)(F)F
→ -17.9% | -9.5%
- COc1ccc(S(=O)(=O)N(C)C[C@H]2Oc3c(NC(=O)C4CC4)cccc3C(=O)N([C@H](C)CO)C[C@@H]2C)cc1
→ -22.2% | i

# (listing goes on)
# Fields: VACV Venus inh | VACV mCherry inh
- COc1ccc(-c2nc3ccc(C)cn3c2Cc2ccc(C)cc2)cc1OC
→ 0.3% | 1.6%
- COc1ccc(C2=Nc3ccccc3NC(c3cccs3)=N2)cc1
→ -12.8% | -8.1%
- Cc1cccc(N2CC(C(=O)OCC(=O)c3ccc(OC(=O)c4cccs4)cc3)CC2=O)c1C (stereo not given)
→ -1.3% | -10.7%
- CN(C)Cc1c[nH]c2nc[nH]c(=O)c12
→ 1.0% | i
- C(=NN1CCCCCC1)c1ccc2ccccc2n1
→ -6.8% | -27.6%
- CC(C)c1ccc(CNC(=O)c2ccc(N3CCCC3)c(NC(=O)NCc3ccccc3)c2)cc1
→ ? | ?
- COc1cc(N)ccc1Nc1c2ccccc2nc2ccccc12
→ ? | ?
- CC1(C)Cc2ccccc2C(=NCC(=O)O)N1
→ -3.5% | -7.4%
- CCOc1cc(C2CC(=O)NC3=C2C(=O)C(C(=O)OC)C(C)C3)cc(Cl)c1O (stereo not given)
→ ? | nt
- COc1ccccc1NC(=O)CSc1nnc(-c2ccc(NC(C)=O)cc2)n1C
→ -7.3% | nt
- Cc1ccc(S(=O)(=O)NNC(=O)c2ccccc2-n2cccc2)cc1
→ -4.2% | -2.3%
- Cc1ccc(CCNc2ncnc3onc(-c4ccc(F)cc4)c23)cc1
→ -4.4% | -2.4%
- COc1ccccc1-c1nc(C#N)c(N2CCN(Cc3ccccc3)CC2)o1
→ -17.9% | nt
- O=C(COC(=O)c1c(F)cccc1F)Nc1cccc(S(=O)(=O)N2CCCCC2)c1
→ -10.4% | i
- CC(=O)Nc1ccc(OCC(O)Cn2cnc3ccccc32)cc1 (stereo not given)
→ 0.5% | 2.8%
- COc1ccc2cc1Oc1ccc(cc1)CC1c3cc(c(OC)cc3CCN1C)Oc1c(OC)c(OC)cc3c1C(C2)N(C)CC3 (stereo not given)
→ -18.8% | -28.2%
